# Screening results: PubChem, several laboratories
# MLL AF4-AF9 inh: inhibitors of AF4 peptide binding to AF9, primary screen, biochemical, AlphaScreen, biotin-AF4 peptide, FLAG-AF9, single point; Protein AF-9 (Homo sapiens), P42568; inhibition, % at 10 µM; 350,000 compounds, 0.47% hits;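 active means every replicate reaching a set inhibition limit, whatever the replicate mean, cut at about 25% in these data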;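 further: 0% = plate neutral control median and 100% = total signal loss; the record names both 10 and 1 µM as test concentration; the first replicate is given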
# Target sequence (P42568 whole entry, looked up): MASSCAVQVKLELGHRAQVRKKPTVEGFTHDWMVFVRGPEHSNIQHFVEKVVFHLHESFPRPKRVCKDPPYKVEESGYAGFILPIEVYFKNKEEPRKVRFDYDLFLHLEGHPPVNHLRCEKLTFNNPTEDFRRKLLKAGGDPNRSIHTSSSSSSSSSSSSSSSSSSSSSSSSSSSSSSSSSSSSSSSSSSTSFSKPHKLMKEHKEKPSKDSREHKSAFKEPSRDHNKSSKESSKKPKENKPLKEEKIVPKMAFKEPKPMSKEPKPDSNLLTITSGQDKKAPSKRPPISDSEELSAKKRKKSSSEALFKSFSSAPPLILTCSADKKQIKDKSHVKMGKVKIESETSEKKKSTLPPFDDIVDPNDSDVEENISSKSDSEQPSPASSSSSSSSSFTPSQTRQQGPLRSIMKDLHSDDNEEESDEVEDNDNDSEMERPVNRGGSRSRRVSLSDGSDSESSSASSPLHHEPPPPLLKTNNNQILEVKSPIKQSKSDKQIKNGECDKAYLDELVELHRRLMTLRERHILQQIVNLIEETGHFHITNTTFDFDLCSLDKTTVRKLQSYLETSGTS
# Ecoli rRNA inh: reduced GFP signal of wild-type E. coli, primary screen, bacterial rRNA inhibitor project, GFP/RFP fluorescence, OD600, single point; E. coli WT GFP vs humanized-ribosome RFP mutants, 24 h; hits give low values; DMSO median 0, no signal -100; GFP signal change (wild-type ribosome), % (test concentration not listed); AID 720706, 2013; 350,000 compounds, 1.6% hits;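 active means significant combined selectivity score with lowered wild-type GFP, culture density cut under 30%, mutant RFP and density less affected; inactive means any of these conditions unmet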; further: one replicate is shown; some compounds called inactive have numbers as strong as hits
# FGF22 binding: binders of human FGF22 protein, primary screen, FGF22 synaptogenesis inhibitor project, biophysical, thermal shift, single point; Fibroblast growth factor 22 (Homo sapiens), Q9HCT0; calls only at 9.99 µM; 340,000 compounds, 1.5% hits; recombinant FGF22 thermal shift, SYPRO orange fluorescence; percent of sucrose octasulfate shift, DMSO zero;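 active means melting point raised past a set limit in the mean and every replicate; three in four hits are not shown here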
# Target sequence (Q9HCT0 whole entry, looked up): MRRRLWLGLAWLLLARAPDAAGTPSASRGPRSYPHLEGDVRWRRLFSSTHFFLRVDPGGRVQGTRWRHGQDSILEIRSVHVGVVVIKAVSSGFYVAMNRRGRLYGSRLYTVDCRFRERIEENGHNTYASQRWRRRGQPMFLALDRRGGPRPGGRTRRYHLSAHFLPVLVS
# Ecoli growth: E. coli growth inhibition, primary screen, OD600; Escherichia coli growth, 23 h; hits give low values; OD600 absorbance (concentration not given with the values); 330,000 compounds, 0.21% hits; AID 1053175, 2014;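 active means OD600 absorbance below the run mean of sample wells minus 3.6 SD, in any replicate, cut at about 0.56 in these data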;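 further: stock transfer was 300 nL into about 60 µL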
# ALR inh: inhibitors of human ALR sulfhydryl oxidase, primary screen, biochemical, H2O2 detection, HRP-luminol luminescence, single point. purified ALR, DTT oxidation. inhibition, % (concentration not given with the values). 290,000 compounds, 3.8% hits;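 active means mean and each replicate at 75% or more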;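 further: stock transfer was 7.5 nL into about 7.5 µL; 0% = neutral wells and 100% = wells with inactivated enzyme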
# Target sequence (P55789 whole entry, looked up): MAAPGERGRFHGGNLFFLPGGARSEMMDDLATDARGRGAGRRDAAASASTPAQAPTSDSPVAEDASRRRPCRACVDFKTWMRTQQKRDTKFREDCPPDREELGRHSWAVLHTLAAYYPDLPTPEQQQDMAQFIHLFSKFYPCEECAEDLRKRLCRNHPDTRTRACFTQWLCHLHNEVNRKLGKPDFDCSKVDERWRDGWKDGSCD
# HNF4A DNA FP: change in binding of human HNF4A to DNA, primary screen, biochemical, fluorescence polarization, FITC-DNA. Hepatocyte nuclear factor 4-alpha (Homo sapiens), P41235. 1 h. activity change, % at 10 µM. 360,000 compounds, 0.3% hits. AID 1224865, 2016; in the data active means activity change above about 30%, passing the limit was not always enough;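 further: controls were the assay level and a saturating level of protein; the project sought stronger binding though the title names inhibitors; some compounds called inactive have numbers as strong as hits; positive values seem to mean higher polarization but the record does not say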
# Vif TR-FRET: inhibitors of Vif binding to APOBEC3G peptide, primary screen, biochemical, TR-FRET, GST-Vif 1-94, biotin-A3G peptide, dose response retest (AID 1117319); inhibition, %; hits with a dose series show IC50 in µM; Virion infectivity factor (Human immunodeficiency virus type 1 group M subtype B (isolate …; TR-FRET GST-Vif / biotin-A3G peptide binding; higher % means a stronger effect; test concentration not given here; strong numbers were not always called active; 260,000 compounds, 0.57% hits;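 active means above the screen mean plus three standard deviations and confirmed in dose response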;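 further: Vif residues 1-94 fused to GST binding biotinylated APOBEC3G peptide 110-148; 0% = full assay without inhibitor and 100% = GST in place of GST-Vif; retest series ran down from 100 µM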
# Ecoli rRNA inh OD600: also measured in Ecoli rRNA inh; calls as there; OD600 change, %; measured here: OD600 growth;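 optical density of the mix in the first replicate; 0 = DMSO median and -100 = no signal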
# Ecoli rRNA inh RFP: second read-out of Ecoli rRNA inh, no call of its own (marks repeat the call); RFP signal change, %; measured here: RFP humanized mutant strains;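 first replicate; 0 = DMSO median and -100 = no signal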
# An asterisk follows results filed as active; i = inactive; . = no result given; + = active, no number; & = joins results of further samples. Some of the compounds tested; the hit share may differ from the screen's.
SMILES,MLL AF4-AF9 inh,Ecoli rRNA inh,Ecoli rRNA inh OD600,Ecoli rRNA inh RFP,FGF22 binding,Ecoli growth,ALR inh,HNF4A DNA FP,Vif TR-FRET
O=C(CCCC(=O)N1CCN(c2ccccc2F)CC1)N1CCN(c2ccccc2F)CC1,.,.,.,.,.,0.76,-6,2.9,1%
CCOC(=O)C1(C)CCN1C(=O)c1cc(OC)ccc1Br (stereo not drawn),-2.2,6,10,0.2,i,.,.,0.6,.
O=C(Cc1csc(-c2ccccc2)n1)NCc1ccc(F)cc1,.,.,.,.,.,0.72,-5,4.8,9%
Cc1c(Cl)cccc1NC(=O)CCN1CCC(C(N)=O)CC1,-8.4,6,12,5.3,i,0.67,-5,-0.8,-1%
COc1ccc2c(c1)C(C)=CC(C)(C)N2S(=O)(=O)c1ccc(Br)cc1,-3.5,-5,5,-3.5,i,0.7,-5,0.8,.
CC1=CC(=O)C(Sc2ccc(C)cc2)=CC1=O,1.0,.,.,.,i,.,.,-1.0,6%
CCCc1n(CC)c2ccccc2[n+]1CC(O)COC1CCCCC1 (stereo not drawn),-3.1,-13,-9,2.4,i,0.69,-22,3.4,4%
CNCc1cc(C)n(-c2cc(S(=O)(=O)N3CCOCC3)ccc2N2CCCC2)c1C,12,5,15,2.3,i,.,.,-4.0,.
CC(C)(C)[S@](=O)N1Cc2cc(C(=O)N3CCOCC3)nc(-c3cccc(C4=CCCC4)c3)c2[C@@H]1CCO,-4.0,6,-3,15,i,.,.,.,.
Cn1cccc1C1CCCN1CC(=O)Nc1ccc(F)c(F)c1F (stereo not drawn),6.8,4,4,-0.8,i,0.7,.,0.0,.
Nc1nc(SCc2ccc(Cl)cc2Cl)ns1,.,.,.,.,.,0.6,99*,4.9,1%
Clc1ccccc1-c1ncnc2ccc(Br)cc12,0.6,-16,-19,-3.9,i,0.66,-1,3.8,3%
CCOC(=O)/C(=N\Nc1cc(Cl)ccc1Cl)N1CCN(C)CC1,.,.,.,.,.,.,11,2.7,1%
COC(=O)Cn1c(=N)n(CCN2CCCCC2)c2ccccc21,.,.,.,.,.,0.7,-5,-0.3,15%
C[C@H]1CN([C@@H](C)CO)C(=O)Cc2cc(NC(=O)Cc3cn(C)c4ccccc34)ccc2O[C@H]1CN(C)CC1CC1,10,4,6,-0.3,i,.,.,.,.
COc1ccc(CNC(=O)CSc2nnc(NC(=O)C3CC3)s2)cc1,0.5,-54,-79,-14,i,0.72,-10,-2.5,-4%
CCCCn1c(C)cc(/C=C(\C#N)C(=O)O)c1C,.,.,.,.,.,0.71,6,-1.5,14%
CNC(=O)N(C1=NCCCCC1)c1ccc(Br)cc1,.,.,.,.,.,0.66,-4,-0.1,.
CC(O)CNc1nc2c(c(=O)n(Cc3cccc(Cl)c3)c(=O)n2C)n1C (stereo not drawn),7.6,-6,13,24,i,0.67,-3,1.0,.
CC1CC(C)CN(C(=O)COC(=O)CNS(=O)(=O)/C=C/c2ccccc2)C1 (stereo not drawn),.,.,.,.,.,0.7,.,-1.3,69%

# Two records picked at random from those above:
SMILES,MLL AF4-AF9 inh,Ecoli rRNA inh,Ecoli rRNA inh OD600,Ecoli rRNA inh RFP,FGF22 binding,Ecoli growth,ALR inh,HNF4A DNA FP,Vif TR-FRET
CC1CC(C)CN(C(=O)COC(=O)CNS(=O)(=O)/C=C/c2ccccc2)C1 (stereo not drawn),.,.,.,.,.,0.7,.,-1.3,69%
COC(=O)Cn1c(=N)n(CCN2CCCCC2)c2ccccc21,.,.,.,.,.,0.7,-5,-0.3,15%

# Additional structures follow:
SMILES,MLL AF4-AF9 inh,Ecoli rRNA inh,Ecoli rRNA inh OD600,Ecoli rRNA inh RFP,FGF22 binding,Ecoli growth,ALR inh,HNF4A DNA FP,Vif TR-FRET
COc1ccc(N2CCN(C(=O)COc3ccc4c(C)c(C)c(=O)oc4c3C)CC2)cc1,.,.,.,.,.,0.7,-1,2.4,.
Nc1cc(N2CCCC2)ccc1[N+](=O)[O-],8.2,2,10,-1.3,i,0.67,.,1.0,.
CCN1CCN(C(c2ccccn2)c2c(NC(=O)c3ccccc3)sc(C)c2C)CC1 (stereo not drawn),.,.,.,.,.,0.65,-15,-1.0,-4%
COc1ccccc1NC(=O)N(Cc1ccco1)Cc1cc2ccc(C)c(C)c2[nH]c1=O,.,.,.,.,.,0.75,-7,-1.5,3%
Cc1cn2c(nc1=O)OC1CC2OC1CO (stereo not drawn),.,1,6,-6.0,i,0.69,-8,-5.6,31%
CC(=O)Nc1ccc(NCc2ccc(C)s2)cc1,-4.5,15,18,0.3,i,0.64,96*,1.3,.
Cc1cnc(NC(=O)CCN2C(=O)C3CCCCC3C2=O)s1 (stereo not drawn),-0.8,19,17,1.8,i,0.68,-11,-0.5,-7%
CCN(C(=O)COC(=O)c1cc2ccccc2cc1OC)c1c(N)n(Cc2ccccc2)c(=O)[nH]c1=O,0.5,-15,-12,-0.6,i,0.67,.,0.1,.
C[C@H](CO)N1C[C@H](C)[C@@H](CN(C)C(=O)NC2CCCCC2)Oc2ccc(NC(=O)Cc3ccccc3)cc2CC1=O,-2.4,0,-3,-3.1,i,.,.,.,.
CCCCOc1ccc(N(CC(=O)NCC2CCCO2)C(=O)CCC(=O)Nc2nccs2)cc1 (stereo not drawn),-8.1,6,11,2.6,i,0.69,8,-2.1,3%
Cc1c(NC(=O)COC(=O)c2ccc(F)c(S(=O)(=O)N3CCOCC3)c2)c(=O)n(-c2ccccc2)n1C,-2.5,20,21,3.8,i,0.62,1,0.5,4%
Cc1cc(C(=O)NC(C)C2CCCO2)cs1 (stereo not drawn),-42,9,10,0.2,i,0.68,.,-2.3,-7%
O=C(CNCCc1ccccc1)Nc1ccc(C(=O)N2CCCCC2)cc1,-0.3,3,10,1.6,i,0.7,-4,2.8,23%
Cc1ccc(NC(=O)Nc2ccc3c(c2)N(C)C(=O)CS3)cc1C,2.9,-13*,-8.7*,-0.4*,i,0.75,62,4.2,-3%
COc1cc(OC)c(C(=O)Nc2ncn[nH]2)cc1OC,.,.,.,.,.,0.74,-1,4.5,-5%
COc1ccc(OC(=O)N(C)C[C@H]2OCc3cn(nn3)CCCC(=O)N([C@@H](C)CO)C[C@@H]2C)cc1,2.9&-13,1,4,2.3,i,.,.,.,.
CNc1nc(Oc2ccc(C(=O)OC)cc2)nc(SC)n1,.,.,.,.,.,0.69,.,-1.7,-4%
Nn1c(SCC(=O)NC2CCCCC2)nnc1-c1ccccc1F,-4.7,.,.,.,i,0.7,-2,1.8,-6%
CC(=O)c1ccc(N2CCN(C(=S)Nc3ccccc3F)CC2)cc1,6.8,-5,0,-11,i,0.7,-7,-1.9,32%
CCC1Sc2ccc(S(=O)(=O)CCC(=O)NCc3ccco3)cc2NC1=O (stereo not drawn),-30,-4,6,-0.5,i,0.76,17,1.2,.
O=C(CC1SC(=Nc2ccccc2F)N(CCN2CCOCC2)C1=O)Nc1ccc(F)cc1F (stereo not drawn),2.7,-18,-6,7.8,i,0.66,-24,3.0,-4%
O=C(Nc1ccc(C#Cc2ccccc2)cc1)C1CC1,.,.,.,.,.,0.7,-1,1.9,-7%
Cc1cc(O)c(NC(=O)c2cc([N+](=O)[O-])ccc2Cl)cc1C,2.6,-16,-15,-4.4,i,0.69,54,5.2,32%
C[C@H]1CN([C@@H](C)CO)C(=O)c2cccc(NC(=O)NC3CCCCC3)c2O[C@H]1CN(C)C(=O)Nc1cccc2ccccc12,0.0,-1,-7,1.2,i,.,.,.,.
O=C(NCCNC(=O)c1ccccc1)c1ccccc1,8.9,4,18,6.3,i,0.73,-6,5.8,7%
C[C@H](CO)N1C[C@H](C)[C@H](CN(C)Cc2ccncc2)Oc2c(NC(=O)c3ccc(-c4nccs4)cc3)cccc2C1=O,1.7,-5,-5,1.3,i,.,.,.,.
CCOC1=C(C#N)CC2(CC1)c1ccccc1-c1ccccc12,-4.1,1,-11,2.9,i,0.72,.,2.5,-2%
O=C(Nc1cccc(O)c1)C1CC(c2ccc(Cl)cc2)=NO1 (stereo not drawn),-1.1,-8,-10,-1.0,.,.,14,1.2,9%
CC(C)(C)NC(=O)C(=O)NNC(=O)c1ccc(C(C)(C)C)cc1,.,.,.,.,.,0.71,-5,-2.3,7%
COc1ccc(-c2cc(C(=O)O)no2)cc1,-1.3,-11,-4,26,i,0.69,3,4.2,-4%
O=C(CSc1n[nH]c(=O)[nH]c1=O)c1ccccc1,.,.,.,.,.,0.72,17,-4.8,32%
C=CCOc1ccc(CNc2nn[nH]n2)cc1,.,.,.,.,.,0.7,7,1.6,6%
COc1cc(C(=O)NC2CCCC2)c(Br)c(OC)c1OC,0.9,5,-18,-0.1,i,0.68,-5,-1.4,.
CC(C)NC(=O)NC(=O)COC(=O)c1ncc(Cl)c(Cl)c1Cl,-1.2,7,12,1.3,i,0.72,-2,1.7,20%
NC(=O)c1ccc(SCC(=O)OCC(=O)N2CCN(C(=O)c3ccco3)CC2)c([N+](=O)[O-])c1,-1.9,-1,5,-1.9,i,0.65,-4,-4.9,5%
Cc1cccn2c(=O)c(/C=N/O)c(NCc3ccccc3)nc12,2.3,.,.,.,i,.,-5,2.8,-1%
CN1C(=O)c2cc(NC(=O)c3cccc(F)c3)ccc2OC[C@H]2O[C@@H](CC(=O)NCc3ccccc3Cl)CC[C@H]21,-1.6,-1,-3,-5.3,+,.,.,.,.
CCOC(=O)CSc1nc2cc3c(cc2cc1C#N)OCCO3,-0.4,14,0,-4.3,i,0.67,-23,0.5,-117%
Cc1noc(C)c1S(=O)(=O)N(C)C[C@H]1Oc2ccc(NC(=O)NC(C)C)cc2CC(=O)N([C@@H](C)CO)C[C@@H]1C,1.8,10,-1,-0.2,i,.,.,.,.
COc1ccc(/C=C/C(=O)Nn2cnnc2)cc1,.,.,.,.,.,0.67,3,0.1,-3%
C[C@@H]1CN([C@H](C)CO)C(=O)c2cc(NC(=O)Nc3ccc(F)cc3)ccc2O[C@@H](C)CCCCO[C@@H]1CN(C)CC1CCCCC1,2.9,1,-12,11,i,.,.,.,.
CC(C)c1ccccc1NC(=S)NCc1ccncc1,-1.1,12,3,-5.7,i,0.74,2,3.0,1%
COc1ccc(Cl)cc1C(=O)OCC(=O)NC(=O)c1cccn1C,.,.,.,.,.,0.74,-10,2.6,-9%
CCC(=O)NC[C@H]1[C@@H](c2ccccc2)[C@@H](CO)N1C(=O)C1CCC1,-3.4,0,-3,1.2,i,.,.,.,.
CCCCCn1c(C(Cc2ccccc2)NC(C)=O)nc2ccccc21 (stereo not drawn),-1.6,-10,-11,-1.6,i,0.78,.,1.8,-1%
O=[N+]([O-])c1ccc(N2CCN(S(=O)(=O)c3ccccc3)CC2)cc1N1CCc2ccccc2C1,-3.9,.,.,.,i,0.73,1,0.6,-2%
COc1cccc(NC(=O)N[C@H]2CC[C@H](CC(=O)NCc3ccccn3)O[C@@H]2CO)c1,-1.7,3,6,-1.0,i,.,.,.,.
O=C(CNC(=O)c1ccc2ccccc2c1)Nc1ncccc1O,0.5,2,-10,-1.3,i,0.66,.,-2.0,.
N#CCC(=O)Nc1ccc(C(=O)OCC(=O)N2CCCC2=O)cc1,0.8,6,7,2.1,i,0.66,99*,1.6,-4%
O=C(CSc1nc2ccccc2s1)Nc1cc(S(=O)(=O)N2CCOCC2)ccc1Cl,.,.,.,.,.,0.69,1,0.1,-40%
